Assay outcomes from PubChem.
Six1-Eya2 inh: Six1/Eya2 interaction inhibition | AlphaScreen GST-Six1/His-Eya2 binding, biochemical; stronger effect = lower value; control for the full effect not named in the record | activity change, % (no concentration beside the values) | hit rate 0.56% among 360,000 | AID 651725; in the data active = activity change below about -65%; inconclusive = about -30% to -65%; inactive = above about -30%; further: on the % scale 0 is the no-effect control and ±100 the full control effect; compound concentration not given in the record
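AlphaScreen with GST-Six1 and His-Eya2 (5X mix: 250 nM and 500 nM), glutathione donor and nickel acceptor beads; buffer 50 mM Tris pH 8.0, 300 mM NaCl, 1 mM TCEP; 1 h at 37 C in the dark.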
TRPML1 blocker: human mucolipin-1 channel inhibition. AID 624415. hit rate 0.02% among 390,000. TRPML1-inducible cells, Ca2+ dye fluorescence, FDSS; stronger effect = lower value; inhibition of EC80 agonist-evoked calcium signal. Q9GZU1. activity change, negative = inhibition, % (test concentration not listed); in the data active means activity change below about -50%; inconclusive means about -30% to -50%; inactive means above about -30%;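 further: stimulus is agonist 54-4 at its EC80 concentration; on the % scale 0 is the no-effect control and ±100 the full control effect; compound concentration not given in the record; the text of the record puts the active cut at -80%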
Target sequence (Q9GZU1 whole entry, looked up): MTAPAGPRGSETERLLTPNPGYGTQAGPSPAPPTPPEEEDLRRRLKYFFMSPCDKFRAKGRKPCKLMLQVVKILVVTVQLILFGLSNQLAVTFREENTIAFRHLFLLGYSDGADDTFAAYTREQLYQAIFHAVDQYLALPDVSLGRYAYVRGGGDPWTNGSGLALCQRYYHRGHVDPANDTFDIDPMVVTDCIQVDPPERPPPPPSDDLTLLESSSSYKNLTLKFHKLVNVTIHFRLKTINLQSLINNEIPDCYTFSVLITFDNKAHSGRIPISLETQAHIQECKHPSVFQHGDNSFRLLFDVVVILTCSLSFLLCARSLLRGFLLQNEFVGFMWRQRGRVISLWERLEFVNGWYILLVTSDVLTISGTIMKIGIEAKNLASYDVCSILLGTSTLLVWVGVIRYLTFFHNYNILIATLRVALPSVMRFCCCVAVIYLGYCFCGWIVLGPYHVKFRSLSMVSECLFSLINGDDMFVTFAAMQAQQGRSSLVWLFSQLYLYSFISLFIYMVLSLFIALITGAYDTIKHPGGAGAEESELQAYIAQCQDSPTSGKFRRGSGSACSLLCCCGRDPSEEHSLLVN
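Calcium fluorescence in TRPML1-DL cells induced overnight with Tet: a 110 s read after compound pin addition, then a 110 s antagonist read after challenge with 54-4 at 4 uM final (EC80).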
TRPML1 ag: human mucolipin-1 channel agonism; activation, % (no concentration beside the values); AID 624414; TRPML1-expressing cells, Ca2+ dye fluorescence, FDSS; host cell line not named in the record; reference of the full effect not given here; hit rate 0.12% among 410,000; Q9GZU1; in the data active = activation above about 50%; inconclusive = about 30% to 50%; inactive = below about 30%; further: 0% is about no effect; the text of the record puts the active cut at 80%
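Tet-induced TRPML1-DL cells, 1,500 per well, cultured overnight, were loaded with a no-wash Ca2+ dye for 45–90 min. Calcium fluorescence was recorded on the FDSS for 110 s after compound addition, before the EC80 agonist (4 uM 54-4) was added.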
PINK1 modulator: PINK1 expression modulation; PINK1 immunofluorescence, high-content cytometry, 24 h; Potency, µM (series often up to 76.6 µM), for inactives: at the highest dose activation (PINK1 increase), most hits filed as activators; hit rate 0.2% among 410,000; active = well fitted activation curve with a large enough effect; inconclusive = small, poorly fitted or top-dose-only effect; inactive = flat fitted curve, though single readings scatter; cell line not stated here;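 further: potency means the concentration at half of the fitted maximal effect; % of control where 0% means no effect; nearly all actives have a fitted effect of over 65% in size; a mitochondrial uncoupler was the plate control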
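A stable cell line was treated with compounds at 5 concentrations for 24 hours, with CCCP as control. PINK1 levels and mitochondrial localization were measured by immunofluorescence with mitochondrial, cell and nuclear markers after fixation, read by laser-scanning cytometry.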
CtBP-E1A inh: CtBP/E1A binding inhibition. AlphaScreen GST-E1A/His-CtBP binding, 1536-well; stronger effect = lower value; control for the full effect not named in the record. activity change, % (test concentration not listed). hit rate 0.49% among 340,000; in the data active means activity change below about -65%; inconclusive means about -30% to -65%; inactive means above about -30%; further: on the % scale 0 is the no-effect control and ±100 the full control effect; compound concentration not given in the record
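Steps: dispense buffer (Tris pH 8.0, NaCl 300 mM, TCEP 1 mM, BSA, Tween 20); add 5X protein mix (GST-E1A, His-CtBP, 125 nM each); pin 23 nL compound; 2 h at 37 °C, dark; add 5X beads (50 ug/mL); 1 h; read.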
D2 ag: agonists of human D2 dopamine receptor (beta-arrestin); hit rate 0.084% among 360,000; DiscoveRx PathHunter D2 beta-arrestin, luminescence, 90 min; 100% = 57 uM dopamine signal; AID 624465; activation, % (test concentration not listed); in the data active = activation above about 40%; inconclusive = about 15% to 40%; inactive = below about 15%; further: compound concentration not given in the record; the text of the record calls up to 30% inactive
Target sequence (P14416 whole entry, looked up): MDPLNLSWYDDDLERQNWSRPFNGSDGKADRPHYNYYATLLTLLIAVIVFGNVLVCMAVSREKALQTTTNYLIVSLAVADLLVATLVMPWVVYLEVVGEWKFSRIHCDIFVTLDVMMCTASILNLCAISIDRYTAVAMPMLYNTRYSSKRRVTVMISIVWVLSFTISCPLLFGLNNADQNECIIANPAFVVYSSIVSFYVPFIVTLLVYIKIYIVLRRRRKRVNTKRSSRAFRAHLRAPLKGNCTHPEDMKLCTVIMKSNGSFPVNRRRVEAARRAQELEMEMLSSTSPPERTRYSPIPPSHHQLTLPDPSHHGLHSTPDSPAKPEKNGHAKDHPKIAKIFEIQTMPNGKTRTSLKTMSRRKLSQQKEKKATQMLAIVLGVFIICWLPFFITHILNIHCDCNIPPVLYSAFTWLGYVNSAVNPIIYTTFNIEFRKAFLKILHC
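Agonist mode: compounds alone added to overnight-plated D2 PathHunter cells for 90 min at 37 C, with 57 uM final dopamine (EC100) defining full response. Beta-arrestin recruitment detected by chemiluminescent reagent, read after 1 h at ambient temperature.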
* = called active by the depositor; ? = inconclusive; . = not tested or not shown; [ ] = remark or other dose.

SMILES	Six1-Eya2 inh	TRPML1 blocker	TRPML1 ag	PINK1 modulator	CtBP-E1A inh	D2 ag
Cc1c(NC(=O)COC(=O)c2ccc(F)c(S(=O)(=O)N3CCOCC3)c2)c(=O)n(-c2ccccc2)n1C	5	-19	0.1	1.6%	0	-1.1
CCCCOc1ccc(N(CC(=O)NCC2CCCO2)C(=O)CCC(=O)Nc2nccs2)cc1 (stereo not given)	-2	-10	0.3	0.5%	-4	-3.0
NC(=O)c1cc(NC(=O)c2ccc(NS(=O)(=O)c3cccs3)cc2)cc(C(N)=O)c1	?	1	1.0	4.3%	?	-6.0
COc1cc(OC)c(C(=O)Nc2ncn[nH]2)cc1OC	?	-6	0.2	-1.5%	?	0.6
Cc1ccc(NC(=O)Nc2ccc3c(c2)N(C)C(=O)CS3)cc1C	-6	2	0.3	?	-7	-0.3
O=C(CNCCc1ccccc1)Nc1ccc(C(=O)N2CCCCC2)cc1	3	-11	0.8	0.9%	1	0.3
Cc1cc(C(=O)NC(C)C2CCCO2)cs1 (stereo not given)	4	-16	2.9	9.7%[38.3 µM]	6	-1.1
Cc1cccc(-c2nc3c4ccccc4nc(N4CCN(c5ccccc5F)CC4)n3n2)c1	.	-6	1.1	-0.2%	.	.
CCN1CCN(C(c2ccccn2)c2c(NC(=O)c3ccccc3)sc(C)c2C)CC1 (stereo not given)	-18	8	0.3	3.4%	-8	-2.9
O=C(CSc1ncc(-c2ccccc2)[nH]1)Nc1cccc(Br)c1	.	-15	4.8	0.3%	.	.
Nc1cc(N2CCCC2)ccc1[N+](=O)[O-]	-8	4	-1.2	-0.2%	-8	-1.0
CC(=O)Nc1ccc(NCc2ccc(C)s2)cc1	-17	1	-1.2	-0.2%	-6	2.4
COc1ccccc1NC(=O)N(Cc1ccco1)Cc1cc2ccc(C)c(C)c2[nH]c1=O	-20	-10	-0.6	2.3%	-4	-3.3
Cc1cn2c(nc1=O)OC1CC2OC1CO (stereo not given)	2	23	-0.5	-0.1%	1	-1.9
C[C@H]1CCC[C@@]2(O[C@@H](CCO)C[C@H](O)[C@H]2O)O1	7	1	-0.6	-0.8%	7	2.2
CC(C)CN1CCN(Cc2cccn2-c2ccccn2)CC1CCO (stereo not given)	-3	-17	-0.2	-0.2%	-3	-2.8
CC(=O)c1ccc2noc(-c3cccc(F)c3)c2c1	-3	-6	-1.4	-1.3%	2	12
O=S(=O)(c1ccc(NC(=S)Nc2ccccc2)cc1)N1CCOCC1	-3	-8	-0.2	-0.4%	-9	-3.0
O=C(O)CCc1ccc(-c2ccc(Cl)cc2)n1CC(=O)O	-1	4	-0.4	5.0%[38.3 µM]	-3	-3.3
COC(=O)c1ccc2c(c1)C(=O)/C(=C/c1ccc(C)cc1)O2	-2	37	0.4	19%	26	-5.2
Cc1nc2c(C(=O)NCc3ccc4c(c3)OCO4)c[nH]n2c(=O)c1Cl	-26	2	1.5	3.9%[38.3 µM]	?	-1.2
Cc1nc(Oc2ccccc2)c2ccsc2n1	11	13	0.5	4.3%	5	-2.7
CC(C)(C)c1[nH]nc2c1C(c1ccccc1OC(=O)N1CCOCC1)C(C#N)=C(N)O2 (stereo not given)	-3	-5	-0.4	-2.2%[38.3 µM]	15	-0.6
COc1ccc(CNC(=O)Cn2ccc3cc(S(=O)(=O)N4CCCC4)ccc32)cc1OC	0	-2	1.1	-0.3%	.	5.9

Arranged by formula weight (lowest first): part of the list above.
SMILES	Six1-Eya2 inh	TRPML1 blocker	TRPML1 ag	PINK1 modulator	CtBP-E1A inh	D2 ag
Nc1cc(N2CCCC2)ccc1[N+](=O)[O-]	-8	4	-1.2	-0.2%	-8	-1.0
Cc1cn2c(nc1=O)OC1CC2OC1CO (stereo not given)	2	23	-0.5	-0.1%	1	-1.9
Cc1nc(Oc2ccccc2)c2ccsc2n1	11	13	0.5	4.3%	5	-2.7
C[C@H]1CCC[C@@]2(O[C@@H](CCO)C[C@H](O)[C@H]2O)O1	7	1	-0.6	-0.8%	7	2.2
CC(=O)c1ccc2noc(-c3cccc(F)c3)c2c1	-3	-6	-1.4	-1.3%	2	12
COC(=O)c1ccc2c(c1)C(=O)/C(=C/c1ccc(C)cc1)O2	-2	37	0.4	19%	26	-5.2
O=C(O)CCc1ccc(-c2ccc(Cl)cc2)n1CC(=O)O	-1	4	-0.4	5.0%[38.3 µM]	-3	-3.3
CC(C)CN1CCN(Cc2cccn2-c2ccccn2)CC1CCO (stereo not given)	-3	-17	-0.2	-0.2%	-3	-2.8
Cc1nc2c(C(=O)NCc3ccc4c(c3)OCO4)c[nH]n2c(=O)c1Cl	-26	2	1.5	3.9%[38.3 µM]	?	-1.2
O=S(=O)(c1ccc(NC(=S)Nc2ccccc2)cc1)N1CCOCC1	-3	-8	-0.2	-0.4%	-9	-3.0
O=C(CSc1ncc(-c2ccccc2)[nH]1)Nc1cccc(Br)c1	.	-15	4.8	0.3%	.	.
COc1ccccc1NC(=O)N(Cc1ccco1)Cc1cc2ccc(C)c(C)c2[nH]c1=O	-20	-10	-0.6	2.3%	-4	-3.3
COc1ccc(CNC(=O)Cn2ccc3cc(S(=O)(=O)N4CCCC4)ccc32)cc1OC	0	-2	1.1	-0.3%	.	5.9

Next results
SMILES	Six1-Eya2 inh	TRPML1 blocker	TRPML1 ag	PINK1 modulator	CtBP-E1A inh	D2 ag
COc1cccc2cc(C(=O)N3CCC(C)CC3)c(=O)oc12	0	19	-0.1	0.9%	3	3.1
CC1Cc2cc(S(=O)(=O)N3CCC(C(=O)NCc4ccco4)CC3)ccc2N1C(=O)C1CCC1 (stereo not given)	-10	-3	0.0	1.3%	-1	5.1
CC(Oc1ccc(Br)cc1)C(=O)N(C)CC(=O)Nc1ccc(N2CCOCC2)cc1 (stereo not given)	-5	1	0.2	3.4%	-3	1.5
CC1(C(=O)NS(=O)(=O)C2CC2)CCCN(C(=O)c2c(F)cccc2F)C1 (stereo not given)	9	.	0.2	0.3%	8	-2.9
CC1(C)C[C@H](O)[C@]2(CO)[C@H](O)C[C@]3(C)C(=CCC4[C@@]5(C)CC[C@H](O)C(C)(C)C5CC[C@]43C)[C@@H]2C1 (stereo not given in full)	2	28	2.6	-1.1%	4	0.5
CCc1cc(=O)oc2c3c(cc(OCC(=O)NCc4ccncc4)c12)OC(C)(C)CC3	-7	.	.	0.9%	2	5.3
COc1cc2oc(=O)cc(-c3ccc(-c4ccc(O)cc4)cc3)c2c(OC)c1OC	-6	1	-0.7	19%	-1	0.6
CN(C)c1ccc(NC(=O)CSc2nc(-c3ccco3)cc(C(F)(F)F)n2)cc1	.	14	0.8	5.8%	.	.
Cc1ccc(NS(=O)(=O)c2cc(-c3cc(C)no3)ccc2C(C)C)nc1	10	-26	0.7	1.2%	.	0.6
CC(C)(C)OC(=O)C[C@H]1C/C=C\C[C@H](CC(=O)N[C@H](CO)Cc2ccccc2)C(=O)N[C@H](C(C)(C)C)COC1=O	8	-2	0.1	0.1%	-17	-3.7
COC(=O)C1CCN(c2ccc([N+](=O)[O-])cc2)CC1	-6	-2	0.7	1.4%	0	0.8
CCOC(=O)N1CCN(C(=S)NC(=O)/C=C/c2ccc(C)cc2)CC1	-11	10	-0.2	-1.7%	?	0.6
CCOc1ccccc1NC(=O)/C(C#N)=C/c1c(C)nn(-c2ccccc2)c1Cl	3	8	-0.2	16%	5	-4.5
O=C(c1ccccc1)c1nn(-c2ccccc2)c(=O)cc1-c1ccccc1	-3	.	-1.0	1.0%	-6	-4.4
O=C1CCc2cc(S(=O)(=O)Nc3ccc(F)cc3)cc3c2N1CC3	-3	0	-1.0	7.0%	6	1.5
O=C(COc1ncnc2ccc(Br)cc12)Nc1ccc(N2CCOCC2)cc1	-3	1	-0.1	-3.9%	7	0.9
O=C(CSCc1ccco1)NC1CCCC1	-2	-13	1.2	2.1%	-4	-2.6
O=C(NCCc1c[nH]c2ccccc12)/C(=C\c1cccnc1)NC(=O)c1ccccc1Br	-6	-10	1.1	-1.4%	.	-6.3
COc1ccc(/C=C(/NC(=O)c2ccccc2Cl)C(=O)O)cc1	2	17	-0.1	-0.2%	4	-2.4
CCOc1ccc(-c2nc(CSCC(=O)NC3CC3)c(C)o2)cc1	4	-12	-0.5	-0.2%	.	5.1
O=C(Cn1nc2n(c1=O)-c1ccccc1SC2)N/N=C/c1ccncc1	10	-2	0.1	1.6%	-23	-4.2
Nc1nc(-c2ccccc2)ns1	7	-12	0.3	0.0%	0	0.9
COc1cc(C2C3C(C)N(C)C(=O)N(C)C3N(C)C(=O)N2C)ccc1O (stereo not given)	-6	13	-1.4	-1.1%	2	-3.2
CCOC(=O)N1CCN(C(=O)c2ccc(CS(=O)(=O)c3c(Cl)cccc3Cl)o2)CC1	1	2	0.2	3.0%	-1	-2.8
O=C(COc1ccccc1[N+](=O)[O-])N1CCC(Cc2ccccc2)CC1	-3	2	0.9	-1.1%	.	-1.5
CCC(C(=O)OCC(=O)Nc1ccc(SC(F)F)cc1)c1ccccc1 (stereo not given)	16	-6	1.3	5.8%	16	-1.8
O=[N+]([O-])c1cccc(C=NN2CCCCCC2)c1	?	14	2.8	1.7%	?	-3.5
CCOc1ccc2nc(NC(=O)C3CCN(S(=O)(=O)c4cnc[nH]4)CC3)sc2c1	-24	5	1.7	-2.1%	-20	-3.1
Cc1ccc(CS(=O)Cc2ccc(C(=O)NC3CCCCC3)o2)cc1 (stereo not given)	16	5	-0.3	-0.6%	-7	4.9
COc1ccc(NC(=O)c2cc(-c3cc(F)ccc3OC(C)C)n[nH]2)c(OC)c1	-16	.	-0.9	0.8%	-11	1.0
CCOC(=O)N(C)C[C@H]1OCc2cn(nn2)CCCC(=O)N([C@H](C)CO)C[C@@H]1C	2	-11	-0.4	0.2%	7	1.1
CC1CC(=O)C2=C(C1)Nc1ccccc1N=C2 (stereo not given)	2	-22	-0.5	17%[38.3 µM]	12	-5.0
COc1ccc(CNC(=O)Cc2ccc(OC)c(S(=O)(=O)N3CCOCC3)c2)cc1	-1	5	-1.0	0.7%	0	-5.5
